ALR inh – human ALR oxidase inhibition via reduced H2O2 | P55789 | purified ALR, DTT oxidation, H2O2 HRP-luminol luminescence | inhibition, % (test concentration not listed) | actives 3.8% (n = 290,000);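 active = mean and each replicate at 75% or more; inconclusive = only one of the two met; inactive = neither met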;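 note: stock transfer was 7.5 nL into about 7.5 µL; 0% = neutral wells and 100% = wells with inactivated enzyme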
Target sequence (P55789 whole entry, looked up): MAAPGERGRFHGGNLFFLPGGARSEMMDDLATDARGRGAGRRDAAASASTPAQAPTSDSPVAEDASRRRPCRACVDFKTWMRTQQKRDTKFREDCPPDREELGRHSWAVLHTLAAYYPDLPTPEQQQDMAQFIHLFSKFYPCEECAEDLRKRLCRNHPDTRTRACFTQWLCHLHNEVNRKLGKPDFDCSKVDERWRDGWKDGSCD
Calb FLC – C. albicans growth modulation with fluconazole; growth inhibition, % (test concentration not listed); actives 0.57% (n = 300,000); C. albicans CaCi-2 (fluconazole-resistant clinical isolate) + fluconazole, Alamar Blue growth, 48 h;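 active = most replicates above 75%; inconclusive = exactly half above 75%; inactive = most below 75%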;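 note: all wells also contain fluconazole at 8 µg/ml as a sub-toxic cotreatment; 0% = median of DMSO wells and 100% = median of geldanamycin control wells; wells of about 8 µL received 7.5 nL stock; the first replicate is given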
LANA-H2B inh – blocks KSHV LANA binding to histone H2A/H2B; AID 2629; Q9QR71; actives 0.6% (n = 320,000); inhibition, % (concentration not given with the values); cell-free LANA-H2A/H2B peptide, fluorescence polarization; in the data active = inhibition mostly above about 10%, no sharp cut-off; inactive = mostly below about 6.7%;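 note: stock transfer was 7.5 nL into about 10 µL; 0% = median of vehicle wells and 100% = median of positive control wells; one replicate is shown; the record names a cut of 25% in any replicate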
HNF4A DNA FP – change in binding of human HNF4 alpha to DNA | activity change, % at 10 µM | AID 1224865 | actives 0.3% (n = 360,000) | HNF4a-FITC DNA binding, fluorescence polarization, 1 h; in the data active = activity change above about 30%, passing the limit was not always enough;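 note: controls were the assay level and a saturating level of protein; the project sought stronger binding though the title names inhibitors; some compounds called inactive have numbers as strong as hits; positive values seem to mean higher polarization but the record does not say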
Target sequence (P41235 whole entry, looked up): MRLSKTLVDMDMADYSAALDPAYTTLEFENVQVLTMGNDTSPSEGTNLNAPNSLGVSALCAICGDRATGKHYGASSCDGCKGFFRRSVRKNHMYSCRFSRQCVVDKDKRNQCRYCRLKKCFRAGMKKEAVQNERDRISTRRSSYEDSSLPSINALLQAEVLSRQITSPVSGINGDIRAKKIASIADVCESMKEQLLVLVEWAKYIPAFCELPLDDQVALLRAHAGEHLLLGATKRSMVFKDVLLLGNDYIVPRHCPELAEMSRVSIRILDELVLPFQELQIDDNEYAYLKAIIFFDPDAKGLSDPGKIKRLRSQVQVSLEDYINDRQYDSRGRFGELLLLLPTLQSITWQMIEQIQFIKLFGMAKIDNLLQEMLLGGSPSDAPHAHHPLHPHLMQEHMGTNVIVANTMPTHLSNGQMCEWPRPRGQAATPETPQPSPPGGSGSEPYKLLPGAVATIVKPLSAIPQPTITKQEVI
B2AR ag – human beta-2 adrenergic receptor agonism by FAP; P07550; Am2.2-beta2AR cells, FAP receptor internalization, flow cytometry; reference of the scale not given here; response, % (test concentration not listed); actives 0.43% (n = 340,000);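 active = response above a set limit, near 3 SD of response in nonfluorescent compounds, cut at about 42% in these data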;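 note: stock transfer was 100 nL into about 11 µL; a reference agonist was the positive control; negative values mostly stem from fluorescent compounds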
Target sequence (P07550 whole entry, looked up): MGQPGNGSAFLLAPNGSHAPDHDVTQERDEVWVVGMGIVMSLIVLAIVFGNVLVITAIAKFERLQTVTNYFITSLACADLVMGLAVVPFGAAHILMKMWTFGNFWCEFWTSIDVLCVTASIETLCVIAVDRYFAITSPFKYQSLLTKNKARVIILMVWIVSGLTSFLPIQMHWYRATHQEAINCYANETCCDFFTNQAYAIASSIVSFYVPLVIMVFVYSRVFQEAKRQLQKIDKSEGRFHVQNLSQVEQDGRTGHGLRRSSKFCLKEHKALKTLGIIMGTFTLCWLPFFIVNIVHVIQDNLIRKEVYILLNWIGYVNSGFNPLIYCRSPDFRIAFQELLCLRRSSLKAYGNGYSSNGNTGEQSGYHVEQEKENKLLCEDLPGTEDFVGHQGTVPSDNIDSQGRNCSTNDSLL
RanGTP-Imp inh – disruptors of Ran-importin-beta complex formation – biochemical, FRET, CFP-Ran, YFP-importin-beta, homogeneous, primary screen; actives 1.1% (n = 300,000); inhibition, % (test concentration not listed); cell-free CFP-Ran/YFP-importin-beta FRET ratio;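 active = most replicates above 15%; inconclusive = exactly half above 15%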;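 note: 0% = DMSO wells and 100% = Ran loaded with GDP instead of GTP; wells of about 40 µL received 100 nL stock; the first replicate is given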
Vif A3G – inhibitors of Vif binding to APOBEC3G peptide, primary screen, biochemical, TR-FRET, GST-Vif 1-94, biotin-A3G peptide, dose response retest (AID 1117319); TR-FRET GST-Vif / biotin-A3G peptide binding; higher % means a stronger effect; test concentration not given here; strong numbers were not always called active; inhibition, %, or IC50 in µM where a hit was titrated; actives 0.57% (n = 260,000);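 active = above the screen mean plus three standard deviations and confirmed in dose response; inconclusive = results disagree or hit not tested in dose response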;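 note: Vif residues 1-94 fused to GST binding biotinylated APOBEC3G peptide 110-148; 0% = full assay without inhibitor and 100% = GST in place of GST-Vif; retest series ran down from 100 µM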
* marks the source's active call; other numbers are inactive results; ? = inconclusive; / = no result given; & = joins results of further samples. An unsorted share of the library; about 6.3% have a hit in one of these screens.

SMILES	ALR inh	Calb FLC	LANA-H2B inh	HNF4A DNA FP	B2AR ag	RanGTP-Imp inh	Vif A3G
CC1CCCCC12NC(=O)N(CC(=O)NCCc1ccc(S(N)(=O)=O)cc1)C2=O (configuration not stated)	-2	/	1.1	0.3	-7	/	10%
COc1ccc(NC(=O)Nc2ccc3c(c2)CCC3)cc1OC	-19	-5	-2.1	-0.8	4	-4.6	-4%
Cc1cc(NC(=O)CSc2nc(CCC3CCCC3)nc3ccccc23)no1	97*	-1	1.1	0.8	-19	-4.4	-6%
CCCCN(Cc1nc2ccccc2c(=O)[nH]1)C(=O)c1nn(C)c(=O)c2ccccc12	/	/	/	0.3	3	/	-6%
CCCCN(CCCC)S(=O)(=O)c1ccc(NS(=O)(=O)c2ccc(NC(C)=O)cc2)cc1	-6	-2	-4.8	3.3	4	0.0	-9%
COc1cccc(OC)c1OC(=O)c1cnccn1	1	6	-1.5	-1.9	6	-2.9	/
O=C(Cn1cc(C(=O)c2cccs2)c2ccccc21)NCc1cccs1	-3	17	2.4	1.4	-3	3.0	-4%
COc1ccccc1C(=O)Nc1nnn(C)n1	/	?	1.1	-3.6	3	-3.7	-6%
CNC(=O)C(=O)N1CCC2(CC1)OCCN2S(=O)(=O)c1ccc(C)cc1	1	-9	-0.4	-2.5	3	2.1	21%
CCN(CC)S(=O)(=O)c1ccc(N=Nc2c(C)[nH]n(C(N)=S)c2=O)cc1	95*	-8	5.3	-2.5	4	-2.7	-2%
CCOC(=O)c1ccc(Nc2ncnc3ccc(C)cc23)cc1	-7	3	4.7	2.6	6	2.1	3%
Cc1ccccc1-n1ncc2c1CC(C)(C)CC2NC(=O)CCN1Cc2ccccc2C1=O (configuration not stated)	2	-3	-0.8	-2.7	-2	-1.5	-2%
Cc1cc(NC(=O)COc2cccc(Oc3ccccc3)c2)no1	-2	19	2.5	3.3	-9	?	-4%
C[N+](C)(C)CCCC(=O)c1ccc2c(c1)OCO2	-4	-5	-11	1.8	5	1.6	5%
Cc1ccc(-c2nnc(N3CCN(C(=O)Cn4c(=O)n(C)c5ccccc54)CC3)c3ccccc23)cc1	-2	-2	-1.9	-3.2	-4	0.3	2%
O=C(COC(=O)c1ccccc1Br)NCc1ccccc1	-43	-4	-0.5	1.9	1	2.1	/
CC(=NC(C)C)C1=C(O)CCC1=O	-11	-4	2.7	-5.5	-1	1.0	3%
CC(C)(C)c1ccc(C(=O)Nc2ccc(N3CCOCC3)cc2)cc1	7	9	0.1	4.6	26	0.8	15%
COc1ccc2c(C)cc(N3CCOCC3)nc2c1	0	54	0.2	1.6	-4	1.5	0%
CC1(C)CC(=O)C=C(NCCN2CCNCC2)C1	-21	-3	4.4	/	/	3.8	-2%
CCCCN(C(=O)NC(=O)Nc1ccc(C)cn1)S(C)(=O)=O	-4	/	-2.0	-0.4	-3	/	-1%
CCn1ncc(Br)c1C(=O)Nc1ccc(F)cc1F	2	3	0.3	-4.2	0	-2.4	-4%
O=C(Nc1ccccc1NC(=O)c1ccc(F)cc1)c1ccc(F)cc1	-1	-3	-1.7	1.4	2	-1.1	-6%
CC(C)C(C(=O)Nc1nccs1)N1C(=O)c2ccccc2C1=O (configuration not stated)	-6	-8	0.4	1.4	2	-0.9	/
COc1ccc(/C=C/C(=O)c2ccccc2)cc1COc1ccc(F)cc1	2	-5	1.1	-2.0	19	2.1	-4%

3 of the entries above in order of the Vif A3G value, highest first.
compound | Vif A3G
CC1CCCCC12NC(=O)N(CC(=O)NCCc1ccc(S(N)(=O)=O)cc1)C2=O (configuration not stated) | 10%
COc1ccc2c(C)cc(N3CCOCC3)nc2c1 | 0%
CCN(CC)S(=O)(=O)c1ccc(N=Nc2c(C)[nH]n(C(N)=S)c2=O)cc1 | -2%

(more compounds)
SMILES	ALR inh	Calb FLC	LANA-H2B inh	HNF4A DNA FP	B2AR ag	RanGTP-Imp inh	Vif A3G
O=C(O)CSc1nnc(Cn2c(=O)sc3ccccc32)n1-c1cccc(Cl)c1	-17	-3	0.8	4.9	3	0.4	3%
O=[N+]([O-])c1ccc(N/N=C2/CCCCC2c2ccccn2)cc1 (configuration not stated)	/	?	/	6.6	6	1.2	?
Cc1cc(C)n2nc(C(=O)N/N=C/c3c4ccccc4cc4ccccc34)nc2n1	-9	9	0.4	-45	-21	-45	/
O=C(O)c1ccc(S(=O)(=O)N(Cc2cccs2)CC2CCCO2)cc1 (configuration not stated)	-7	3	-1.5	1.8	-7	2.3	/
CCOc1ccc(NC(=O)CN(C)CC(=O)NC(C)c2ccccc2)cc1OCC (configuration not stated)	-3	17	-0.7	-0.4	6	0.3	-4%
O=C(CSc1ncnc2c1oc1ccccc12)Nc1ccc2c(c1)OCCO2	-3	-3	-0.2	3.8	-8	4.7	-435%&-71%
COc1cc(/C=C/C(=O)OCC(=O)N2CCc3ccccc3C2)ccc1O	21	-4	-4.4	-0.1	9	2.4	-4%
Cc1ccc(SCC(=O)OCC(=O)NCCCc2ccccc2)cc1	2	-2	-1.1	0.8	9	-0.9	-5%
Cc1ccccc1NC(=O)CCC(=O)OCCCC(F)(F)C(F)(F)F	-3	4	-2.4	-1.2	0	-1.6	3%
COc1ccc(C(=O)/C=C2\Sc3ccccc3N2C)cc1	31	0	-4.4	-1.4	-8	-1.5	5%
Cc1ccc(S(=O)(=O)NCc2ccc(C(=O)NCCN(Cc3ccccc3)C(C)C)cc2)cc1	12	-26	-5.4	0.4	9	-8.7	/
COC(=O)C1=C(C(=O)OC)[C@@H]2N(Cc3ccccc3)c3ccccc3[C@@]23C[C@@H](C(=O)OC)N(C(=O)NC(C)(C)C)C3=N1	0	0	-0.3	1.3	2	0.2	/
NC(=O)CSc1nnc(CNc2ccc(F)cc2)n1CC1CCCO1 (configuration not stated)	/	8	-2.7	2.8	12	4.2	5%
CCOC(=O)C1(Cc2ccc(OC)cc2)CCN(C(=O)CC2CCC(=O)N2)CC1 (configuration not stated)	-6	0	1.8	-0.4	-5	-4.7	-7%
Cc1ccc(-c2csc3ncnc(-n4nnc5ccccc54)c23)cc1	/	25	1.6	4.6	-3	-1.3	21%
Cc1nc2ncnn2c(C)c1C/C=C/c1ccccc1	-6	56	-304	2.6	-4	-0.8	-4%
O=C(CCN1C(=O)c2ccccc2S1(=O)=O)NCc1ccccc1	-11	4	-1.4	-4.7	-5	0.5	4%
CCOC(=O)c1nnn(-c2nonc2N)c1-c1ccc(F)cc1	16	-11	-0.5	-3.3	14	3.1	9%
Cc1cc(Nc2cc(Cl)cc(Cl)c2)nc(N)n1	-3	34	-17	0.8	-8	4.4	/
COc1cc(NS(=O)(=O)c2ccc(N/C=C\C(=O)c3ccc(F)cc3)cc2)nc(OC)n1	5	-26	-1.3	3.4	-3	4.0	/
CCCC(C(=O)NCc1ccco1)N(C(=O)CNS(=O)(=O)c1ccccc1)C1CCCC1 (configuration not stated)	1	23	1.1	0.3	-4	-0.7	3%&0%
COc1cccc(C2/C(=C(\O)c3ccc(OC)c(OC)c3)C(=O)C(=O)N2c2cc(C)on2)c1 (configuration not stated)	-1	/	7.8	0.7	3	/	4%
COc1ccc(CCC(=O)Nc2ncc(C)s2)cc1OC	-6	9	-0.1	1.9	-9	-0.3	-9%
COc1cccc(Nc2ncnc3sccc23)c1	/	30	2.4	1.9	-7	?	/
CCOC(=O)C1CCN(c2c(NCCN(CC)c3ccccc3)c(=O)c2=O)CC1	98*	-8	-2.2	2.4	-1	-13	1%
SMILES	ALR inh	Calb FLC	LANA-H2B inh	HNF4A DNA FP	B2AR ag	RanGTP-Imp inh	Vif A3G
COc1ccc(CCNC(=O)c2cc3c(=O)n4ccccc4nc3n(CC3CCCO3)c2=N)cc1OC (configuration not stated)	-7	-1	0.5	11	-6	18*	/
Cn1c(SCC(=O)N2CCCC2)nc2ccccc2c1=O	-9	-7	-1.0	-1.2	3	?	66%
CCN(CC)CCn1c(=N)n(CC(=O)c2ccc(C)cc2)c2ccccc21	16	-6	-1.7	-0.1	14	2.4	/
CCCCN(C)C(=O)CNC(=O)c1nn(-c2ccc(OC)cc2OC)c(=O)c2ccccc12	1	25	-1.0	1.9	-21	6.9	-5%
CCN1/C(=C2\SC(=S)N(Cc3ccccc3)C2=O)Sc2ccccc21	/	-21	6.0	33	-5	24*	/
COC(=O)/C=C1\S/C(=N/N=C/c2ccccc2)NC1=O	/	2	/	1.6	5	2.6	/
C#CCOCCOCCOCCNc1nc(N2CCN(C(=O)[C@H](C(C)C)n3cc(CCO)nn3)CC2)nc(N2CCN(C(=O)[C@H](C(C)C)n3cc(CCO)nn3)CC2)n1	-5	-15	-5.9	1.1	-5	0.8	?
Cc1cc(-c2ccccc2)[nH]c(=O)c1C#N	-8	41	2.5	1.3	-9	2.1	-1%
CC(=O)Nc1ccc(Nc2ncnc3c2cnn3-c2cccc(C)c2)cc1	23	4	-5.0	0.7	1	3.3	-2%&-3%
COCCN(C(=O)COC(=O)CCc1ccc(OC)cc1)c1c(N)n(Cc2ccccc2)c(=O)[nH]c1=O	-3	-3	-2.7	1.1	-7	2.2	2%
COC(=O)C1=C(N)Oc2cc(C)[nH]c(=O)c2C1c1ccc(Cl)cc1 (configuration not stated)	-4	2	-1.4	4.1	-1	5.2	6%
Cc1ccn2cc(C(=O)Nc3ccc4c(c3)OCCO4)nc2c1	3	5	2.6	0.9	-3	7.1	-5%
N#Cc1c(NC(=O)c2cnccn2)sc2c1CCCC2	98*	58	19*	2.9	-9	4.7	?
CC(C)OCCCNC(=O)c1ccc(NS(C)(=O)=O)cc1	-4	-1	-3.3	1.1	3	-1.0	0%
CN(/N=C/c1cc(Br)cc(Br)c1O)c1cccc(C(F)(F)F)n1	/	-10	-3.0	1.4	2	-11	/
O=C(NCc1ccc2c(c1)OCO2)C12CN(Cc3ccccc3)CC1C(c1cccc([N+](=O)[O-])c1)=NO2 (configuration not stated)	0	-3	0.2	2.4	0	6.7	30%
O=C(Nc1ccc2c(c1)OCO2)c1cccc(Cl)c1	0	-11	2.6	2.2	-8	2.6	-2%
O=C1CN(C(=O)CN2CCCC2)C(c2ccccc2)c2cc(Br)ccc2N1 (configuration not stated)	1	-1	-2.0	-2.5	-3	1.2	3%
Brc1ccc(Nc2nc3ccccc3n3nnnc23)cc1	-1	-28	3.2	/	/	7.4	-1%
Cc1ccc(C2=NOC(=O)/C2=C\c2ccc(C)o2)cc1	72	2	-21	0.6	56*	2.6	-1%
CC(C)OC(=O)CC(=O)c1sc2nc3c(cc2c1N)CN(C)CC3	/	7	74*	/	/	8.4	?
COc1ccc(S(=O)(=O)NCc2ccncc2)cc1OC	-3	-1	-6.2	1.7	1	5.4	3%
O=C(c1ccccc1)c1ccc(N2CCOCC2)c(F)c1	-5	0	4.6	0.9	-14	-3.3	-8%
COC(=O)c1c(NC(=O)C(C)(C)C)sc2c1C(C(=O)OC)CC2 (configuration not stated)	0	3	2.5	-9.6	-7	3.4	2%
C[C@]12CC[C@H](O)CC1=CCC1C2CC[C@@]2(C)C1CC[C@@H]2NC(=O)CCC(=O)O (some centres not stated)	-3	/	-0.9	2.8	-3	/	-6%
COCCNC(=O)CSc1nc(-c2ccc(OC)c(OC)c2)cc(C(F)(F)F)n1	9	-4	-3.7	-1.1	-14	0.3	-4%
CC(=O)Nc1ccc(NC(=O)/C=C/c2ccccc2)cc1	-1	-14	2.3	-4.5	-5	0.6	7%
Fc1ccc(Cn2nnc3ccccc32)cc1	2	-5	-1.6	4.0	3	-3.7	-4%
Cc1ccc(Cl)c2c1NC(=O)C2(O)CC(=O)c1ccccc1O (configuration not stated)	-3	-13	0.6	1.4	2	?	10%

Bioassay records as filed in PubChem BioAssay.
